rRNA inh HTS = inhibits bacterial ribosomal RNA function over humanized ribosomes; E. coli WT GFP vs humanized-ribosome RFP mutants, fluorescence, 24 h; hits give low values; DMSO median 0, no signal -100; GFP signal change (wild-type ribosome), % (no concentration beside the values); actives 1.6% (n = 350,000); AID 720706;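 active = significant combined selectivity score with lowered wild-type GFP, culture density cut under 30%, mutant RFP and density less affected; inactive = any of these conditions unmet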; also: one replicate is shown; some compounds called inactive have numbers as strong as hits
MLL AF4-AF9 inh = MLL-AF4/AF9 protein interaction inhibition | AlphaScreen, biotin-AF4 peptide binding to FLAG-AF9 | inhibition, % at 10 µM | P42568 | AID 651704 | actives 0.47% (n = 350,000);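 active = every replicate reaching a set inhibition limit, whatever the replicate mean, cut at about 25% in these data; inconclusive = mean inhibition reaches that limit but some replicates miss it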;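 also: 0% = plate neutral control median and 100% = total signal loss; the record names both 10 and 1 µM as test concentration; the first replicate is given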
Target sequence (P42568 whole entry, looked up): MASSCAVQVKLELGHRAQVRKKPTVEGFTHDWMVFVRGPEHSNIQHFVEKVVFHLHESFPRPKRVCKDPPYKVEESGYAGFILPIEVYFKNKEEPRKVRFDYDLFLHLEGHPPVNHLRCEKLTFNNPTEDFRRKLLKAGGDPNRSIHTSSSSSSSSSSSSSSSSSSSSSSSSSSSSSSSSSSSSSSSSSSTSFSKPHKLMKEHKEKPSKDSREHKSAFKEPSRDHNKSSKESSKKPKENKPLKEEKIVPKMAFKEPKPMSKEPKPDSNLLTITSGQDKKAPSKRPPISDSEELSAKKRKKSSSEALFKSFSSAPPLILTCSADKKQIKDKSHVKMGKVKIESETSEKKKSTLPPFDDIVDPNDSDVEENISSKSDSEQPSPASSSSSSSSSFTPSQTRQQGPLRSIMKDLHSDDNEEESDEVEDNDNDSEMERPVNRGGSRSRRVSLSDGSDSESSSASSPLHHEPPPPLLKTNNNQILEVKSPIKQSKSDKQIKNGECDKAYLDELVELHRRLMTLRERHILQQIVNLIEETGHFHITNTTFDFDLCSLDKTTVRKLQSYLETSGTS
FGF22 binding = FGF22 (human) thermal shift binding; recombinant FGF22 thermal shift, SYPRO orange fluorescence; percent of sucrose octasulfate shift, DMSO zero; calls only at 9.99 µM; actives 1.5% (n = 340,000); AID 651658;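 active = melting point raised past a set limit in the mean and every replicate; inconclusive = no clear call; three in four hits are not shown here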
Target sequence (Q9HCT0 whole entry, looked up): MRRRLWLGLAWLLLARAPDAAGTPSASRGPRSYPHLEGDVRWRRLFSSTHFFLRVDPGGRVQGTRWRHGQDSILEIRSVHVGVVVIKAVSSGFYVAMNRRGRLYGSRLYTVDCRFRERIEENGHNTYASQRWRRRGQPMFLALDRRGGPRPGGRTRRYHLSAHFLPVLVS
ALR inh = blocks human ALR sulfhydryl oxidase activity; purified ALR, DTT oxidation, H2O2 HRP-luminol luminescence; inhibition, % (no concentration beside the values); actives 3.8% (n = 290,000); AID 485317;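 active = mean and each replicate at 75% or more; inconclusive = only one of the two met; inactive = neither met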;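 also: stock transfer was 7.5 nL into about 7.5 µL; 0% = neutral wells and 100% = wells with inactivated enzyme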
Target sequence (P55789 whole entry, looked up): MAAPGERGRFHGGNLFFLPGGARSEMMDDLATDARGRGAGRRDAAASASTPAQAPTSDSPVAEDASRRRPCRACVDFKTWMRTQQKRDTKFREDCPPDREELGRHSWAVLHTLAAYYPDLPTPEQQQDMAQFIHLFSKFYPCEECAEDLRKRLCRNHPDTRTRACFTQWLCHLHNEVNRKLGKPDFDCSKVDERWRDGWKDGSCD
Beta cell apopt = beta cell apoptosis inhibition; INS-1E cytokine-induced death, ATP luminescence, 48 h; percent of positive-control rescue, neutral wells zero; protection from apoptosis, % (test concentration not listed); AID 435005; actives 0.8% (n = 300,000);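 active = all replicates at 75% or more, or half of them and the mean; inconclusive = half reach 75% but not the mean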;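 also: 0% = cytokine-treated negative control wells and 100% = positive control rescue; higher means more ATP so stronger rescue from cytokine killing; wells of about 40 µL received 100 nL stock; the first replicate is given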
RanGTP-Impb inh = disruptors of Ran-importin-beta complex formation – biochemical, FRET, CFP-Ran, YFP-importin-beta, homogeneous, primary screen | AID 2216 | actives 1.1% (n = 300,000) | inhibition, % (concentration not given with the values) | cell-free CFP-Ran/YFP-importin-beta FRET ratio;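 active = most replicates above 15%; inconclusive = exactly half above 15%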;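 also: 0% = DMSO wells and 100% = Ran loaded with GDP instead of GTP; wells of about 40 µL received 100 nL stock; the first replicate is given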
T cruzi repl = blocks replication of Trypanosoma cruzi | T. cruzi beta-gal in NIH3T3, luminescence, 90 h | inhibition, % (test concentration not listed) | actives 1.4% (n = 300,000) | AID 1885;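 active = mean inhibition across valid replicates above about 55%, limit read from the data; inconclusive = mean below that limit but half or more replicates reach it; inactive = mean below it, under half of replicates reach it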;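 also: signal also drops with host cell toxicity which is not excluded here; 0% = plate median of DMSO wells and 100% = zero luminescence signal; higher percent means less beta-gal luminescence so fewer parasites; stock transfer was 50 nL into about 50 µL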
Calb FLC = affects C. albicans growth with fluconazole; C. albicans CaCi-2 (fluconazole-resistant clinical isolate) + fluconazole, Alamar Blue growth, 48 h; growth inhibition, % (no concentration beside the values); actives 0.57% (n = 300,000); AID 1979;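 active = most replicates above 75%; inconclusive = exactly half above 75%; inactive = most below 75%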;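 also: all wells also contain fluconazole at 8 µg/ml as a sub-toxic cotreatment; 0% = median of DMSO wells and 100% = median of geldanamycin control wells; wells of about 8 µL received 7.5 nL stock; the first replicate is given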
rRNA inh HTS OD600 = further read-out of rRNA inh HTS, marked with its call; OD600 change, %; measured here: OD600 growth;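 optical density of the mix in the first replicate; 0 = DMSO median and -100 = no signal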
rRNA inh HTS RFP = second read-out of rRNA inh HTS, no call of its own (marks repeat the call); RFP signal change, %; measured here: RFP humanized mutant strains;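 first replicate; 0 = DMSO median and -100 = no signal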
* hit, by the source's call; i = inactive; ? = inconclusive; · = no result given; & = joins results of further samples. Not all compounds are listed. The share of hits here may be higher or lower than overall.

SMILES	rRNA inh HTS	rRNA inh HTS OD600	rRNA inh HTS RFP	MLL AF4-AF9 inh	FGF22 binding	ALR inh	Beta cell apopt	RanGTP-Impb inh	T cruzi repl	Calb FLC
Cc1nnc(NC(=O)c2ccncc2)s1	·	·	·	·	·	2	-3	3.9	-24	-3
CSC1=NC(NCCCO)c2c(sc3c2CC(C)(C)OC3)N1 (stereo not drawn)	·	·	·	·	·	-10	2	1.4	12	16
O=[N+]([O-])c1cccc(-c2n[nH]c(=S)n2-c2ccccc2)c1	·	·	·	·	·	·	-10	0.0	-13	4
O=C(Cc1ccc(Cl)cc1)NCc1ccccc1Cl	6	8	0.7	0.0	i	·	-5	-2.3	-2	4
COc1cc2c(cc1OC)C1C(C(=O)Nc3ccccc3N3CCN(C)CC3)c3ccccc3C(=O)N1CC2 (stereo not drawn)	11	-1	-7.1	-5.2	i	·	-2	6.2	-4	-12
CCOc1ccccc1-n1c(N)c(C(N)=O)sc1=S	·	·	·	·	·	-12	-5	-2.0	-21	-24
O=C(NNc1nc(Nc2ccccc2)nc(N2CCOCC2)n1)Nc1ccc(Cl)cc1	3	7	4.2	0.8	i	-2	22	0.9	18	-17
Cc1cccc(NC(=O)c2ccc3nsnc3c2)c1C	14	14	2.5	-3.4	i	-7	-2	5.8	-38	-10
CC1CCCCC1NC(=O)CN1CCN(S(=O)(=O)c2ccc(Br)s2)CC1 (stereo not drawn)	12	10	1.9	0.1	i	0	1	·	·	·
COc1ccc(-c2ccc3c(c2)S(=O)(=O)c2cccc(C(=O)NC4CC4)c2C3=O)cc1OC	2	8	-1.0	-0.1	i	-5	-4	·	·	·
COc1ccc(C(=O)NCCCN(C)CCCNC(=O)c2ccc(OC)cc2)cc1	-8	-2	-0.1	1.0	i	-8	-7	5.1	17	-5
C=CCn1c(O)c2ccc(C(=O)N=NC(=O)c3ccc(F)cc3)cc2c1O	4	2	-3.2	-1.9	i	-12	-3	2.4	-9	-3
N#CCCn1cc(CNC2CCC(O)CC2)c2ccccc21 (stereo not drawn)	7	15	0.5	0.4	i	2	-12	-1.7	-10	-5
CC1CCCC(C)N1C(=O)COC(=O)c1ccc([N+](=O)[O-])o1 (stereo not drawn)	-17	15	-2.2	-2.8	i	-16	-8	·	·	·
COc1cc(O)c(C(CC(=O)N2CCOCC2)c2ccc(N(C)C)cc2)c(OC)c1 (stereo not drawn)	1	9	0.7	-0.9	i	·	-2	?	-13	4
Cc1ccc2nc(SCC(=O)N3CCCCC3)nc(=O)n2c1	2	-3	-3.0	-3.4	i	-2	3	2.4	-9	1
CCC(C)(C)C1CCC2(CC1)NC(=O)N(CC(=O)N1CCN(S(=O)(=O)c3cc(C)ccc3C)CC1)C2=O (stereo not drawn)	6	8	1.5	-0.3	i	-1	29	-2.9	32	16
Cc1ccc(C(=O)NCCc2ccccc2)cc1S(=O)(=O)N1CCOCC1	-2	0	0.5	-1.8	i	-3	-3	·	·	·
Cc1ccc(-c2ccc(/C=N/N=C3/NC(=O)C(CC(=O)O)S3)o2)c([N+](=O)[O-])c1 (stereo not drawn)	·	·	·	·	·	99*	4	-1.1	-17	3
COC(=O)c1sccc1NC(=O)NC1CCCCC1	-1	2	-1.0	3.8	i	0	-9	8.4	-3	-1
CC(=O)N(Cc1ccc2c(c1)OCO2)C1CC(=O)N(CCc2ccccc2)C1=O (stereo not drawn)	·	·	·	·	·	-4	-2	-5.5	2	-44
Cc1nc2cc(Cl)c(Cl)cc2n1CCCO	-22*	-17*	2.0*	·	i	·	0	-0.4	-4	-3
CCc1ccc(-c2ccc(C(=O)O)cc2)nc1	·	·	·	·	·	5	2	-1.8	-15	-6
COCC(C)NC(=O)c1cc(-c2ccc(OC)c(OC)c2)on1 (stereo not drawn)	-11&-4	3&-8	-10&-3.0	15	i	-3	-5	3.2	-11	-20
COc1cc(/C=N/Nc2nn3cnnc3c3ccccc23)cc(OC)c1OC	·	·	·	·	·	2	16	-0.1	-5	8

(next part)
SMILES	rRNA inh HTS	rRNA inh HTS OD600	rRNA inh HTS RFP	MLL AF4-AF9 inh	FGF22 binding	ALR inh	Beta cell apopt	RanGTP-Impb inh	T cruzi repl	Calb FLC
Cc1cc(C(F)F)n2ncc(C(=O)NCc3ccccc3F)c2n1	-5	-10	-1.6	-5.9	i	-5	3	0.5	17	-3
O=[N+]([O-])c1ccc(Cl)c(/C=N/N2CCN(c3ccccc3)CC2)c1	-3	0	-3.0	14	i	-21	2	3.9	16	-11
COc1ccccc1NC(=O)Oc1cccc(OC(=O)c2ccccc2)c1	8	12	-0.1	0.0	i	10	-2	?	9	-2
COc1ccc(-n2ccnc2SCC(=O)NC2CCCC2)cc1	14	12	-2.1	-2.6	i	28	-5	·	·	·
CCCc1ccccc1OCCNS(=O)(=O)c1cc2c(cc1C)OCC(=O)N2	-20	-43	4.4	-0.7	i	-2	5	-0.1	-4	9
Cc1ccc(/C=N/NC(=O)c2nnn(-c3nonc3N)c2CN(C)c2ccccc2)s1	8	-24	-1.4	-0.5	i	-6	-2	1.9	-5	·
COCCNC(=O)C(c1ccc(O)cc1)N(C(=O)CCC(=O)Nc1nccs1)c1cccc(C)c1 (stereo not drawn)	6	-5	-2.6	-1.8	·	0	-5	-0.9	-6	-2
Cc1ccccc1CSc1nn2c(=O)c(C)nnc2s1	-7	7	0.9	1.1	i	·	2	-7.2	13	12
O=C(O)c1ccn[nH]1	·	·	·	·	·	-4	-1	-0.1	-7	-1
Cc1cccc(CCNC(=O)C2CCN(S(=O)(=O)c3c(C)noc3C)CC2)c1	·	·	·	·	·	-1	-4	-1.4	-13	8
Cc1ccc(CC(=O)Nc2cc([N+](=O)[O-])ccc2F)cc1	17	22	2.2	0.0	i	-7	-6	?	-18	-18
C[C@H](NC(=O)c1cc2c(cn1)[nH]c1ccccc12)C(=O)O	9	7	-4.4	-7.3	i	98*	-7	-4.7	-6	2
Cc1cc(NS(=O)(=O)c2ccc(NC(=O)CN3C(=O)c4ccccc4C3=O)cc2)nc(C)n1	·	·	·	·	·	-6	-6	4.7	-8	4
Cc1cccc(/C(N)=N/OC(=O)N2c3ccccc3Sc3ccccc32)c1	·	·	·	·	·	68	17	3.6	43	18
COC(=O)C1=CN(Cc2ccc(OC)cc2)C=C(C(=O)OC)C1c1cccs1	-14	-1	-3.0	-13	i	-4	-7	-1.6	31	3
CC(=O)Nc1ccc(NC2=Nc3ccccc3N3C2=Nc2c(c(C)nn2-c2ccccc2)C3c2ccccc2)cc1 (stereo not drawn)	8	31	6.9	·	·	0	58	0.0	10	-2
Cc1ccc(C(=O)CSc2nc3cc(S(=O)(=O)N4CCOCC4)ccc3o2)cc1	·	·	·	·	·	21	1	7.7	-27	9
CC(C)(C)c1ccccc1OCC(=O)Nc1ncn[nH]1	·	·	·	·	·	5	-5	?	-6	-4
CCCCn1c(=O)cc(O)c2ccccc21	·	·	·	·	·	-2	1	3.0	0	2
COc1ccc(C(=O)O/N=C(\N)c2ccccn2)cc1	8	11	0.3	-3.2	i	·	4	2.0	-6	1
CC(=O)N1CCN(c2ccc(NC(=S)NC(=O)/C=C/c3ccccc3)cc2)CC1	3	-1	-0.3	-1.8	i	-13	-7	-3.7	-11	42
CCN(CC)C(=O)N1CCN(S(=O)(=O)c2ccc(C)cc2)CC1	·	·	·	·	·	0	-1	-0.5	-3	1
O=C(CN1CCN(c2ccc(O)cc2)CC1)NC(=O)NCc1ccco1	12	-1	2.1	2.8	i	98*	2	-2.5	2	-4
O=C1c2c(Br)c(Br)c(Br)c(Br)c2C(=O)N1c1ccccn1	27	21	2.4	-0.3	i	·	-11	-4.5	-46	2
CCOCCCNC(=O)CN1CCN(Cc2ccccc2C)C1=O	5	18	12	-0.8	i	·	-3	-1.1	-4	-5

Quoted from the listing (four entries):
SMILES	rRNA inh HTS	rRNA inh HTS OD600	rRNA inh HTS RFP	MLL AF4-AF9 inh	FGF22 binding	ALR inh	Beta cell apopt	RanGTP-Impb inh	T cruzi repl	Calb FLC
Cc1cc(C(F)F)n2ncc(C(=O)NCc3ccccc3F)c2n1	-5	-10	-1.6	-5.9	i	-5	3	0.5	17	-3
O=[N+]([O-])c1ccc(Cl)c(/C=N/N2CCN(c3ccccc3)CC2)c1	-3	0	-3.0	14	i	-21	2	3.9	16	-11
COc1ccccc1NC(=O)Oc1cccc(OC(=O)c2ccccc2)c1	8	12	-0.1	0.0	i	10	-2	?	9	-2
COc1ccc(-n2ccnc2SCC(=O)NC2CCCC2)cc1	14	12	-2.1	-2.6	i	28	-5	·	·	·

Next part
SMILES	rRNA inh HTS	rRNA inh HTS OD600	rRNA inh HTS RFP	MLL AF4-AF9 inh	FGF22 binding	ALR inh	Beta cell apopt	RanGTP-Impb inh	T cruzi repl	Calb FLC
COC(=O)C1=C(O)/C(=C\c2sccc2C)N=C1C	4	-3	4.2	-5.6	i	-8	2	-2.3	-10	1
NC(=O)C1(N2CCCCC2)CCN(Cc2nc(-c3cccs3)no2)CC1	12	4	3.1	6.5	i	1	-8	-3.8	17	-12
Cc1ccccc1Cn1cc(C)c(=O)[nH]c1=O	6	2	-2.2	-2.7	i	-4	-2	4.6	-14	-2
Cc1cccc(N2CCN(C(=O)Cn3cnc4c3c(=O)n(C)c(=O)n4C)CC2)c1C	·	·	·	·	·	-8	0	0.7	-7	-1
O=C1[C@@H]2C(Cc3ccc(O)cc3)NC3(C(=O)Nc4ccc(F)cc43)[C@@H]2C(=O)N1c1ccc(F)cc1 (stereo partly drawn)	·	·	·	·	·	56	-4	4.9	-11	15
O=C(Cc1ccccc1)c1nnc(-c2ccccc2)o1	17	6	2.5	-1.8	i	5	0	0.5	-5	-5
O=C1C(=O)N(Cc2cccnc2)C(c2cccc([N+](=O)[O-])c2)/C1=C(\O)c1ccc2c(c1)OCCO2 (stereo not drawn)	2	6	-4.6	0.1	i	1	-6	1.5	-13	-10
O=c1nc2ccccc2c(NS(=O)(=O)c2ccccc2)n1-c1ccccc1	·	·	·	·	·	-19	6	-0.1	1	9
CS(=O)(=O)N1CCN(c2ccc([N+](=O)[O-])cc2C(F)(F)F)CC1	-3	2	-5.0	-3.9	i	-8	0	0.6	9	-2
CC1(C)Cc2cccc(OCC(=O)N3CCN(c4ccccc4Cl)CC3)c2O1	-19	-37	5.0	-1.6	i	-3	·	4.2	12	3
Cc1c(OCC(=O)NCC(O)c2ccccc2)ccc2c3c(c(=O)oc12)CCC3 (stereo not drawn)	2	12	-3.4	-1.9	i	-2	18	-4.8	7	-5
N=c1ccn2c(n1)O[C@H]1[C@@H](CO)[C@H](O)O[C@H]12	18	23	2.6	-4.2	i	0	9	·	·	·
Cc1ccc(NC(=O)c2cc(NC(=O)CCC(=O)O)ccc2N2CCCCC2)cc1	1	-1	-1.5	-31	i	60	-5	1.1	-1	7
O=C(NCc1ccco1)C1CCN(C(=O)c2ccc(Cl)cc2Cl)CC1	0	4	-0.9	-6.7	i	·	-1	3.7	-13	4
OC(CCc1ccncc1)COc1ccccc1 (stereo not drawn)	-5	1	12	0.1	i	·	-3	-0.5	-35	6
CCc1ccc(-c2cc(C)no2)cc1S(=O)(=O)N1CCN(c2ccccn2)CC1	-11	-14	3.0	0.2	i	-19	2	3.3	13	0
